# KCNQ2 pot = KCNQ2 (rat) channel potentiation; O88943; CHO-K1 KCNQ2, FluxOR thallium flux fluorescence; stronger effect = higher value; B-score at 10 µM; 310,000 compounds, 0.54% hits; AID 2239;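 active = fluorescence ratio B-score at least 3 SD of library B-scores, with initial fluorescence B-score within 3 SD, cut at about 5.3 in these data; same plate scores as AID 2156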;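 also: B-score of peak minus minimum over baseline fluorescence ratio after K+ and Tl+ stimulus; positive B-score means potentiation of KCNQ2 with more thallium influx and brighter signal; only the inactives scoring about 0 or higher are listed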
# Target sequence (O88943 whole entry, looked up): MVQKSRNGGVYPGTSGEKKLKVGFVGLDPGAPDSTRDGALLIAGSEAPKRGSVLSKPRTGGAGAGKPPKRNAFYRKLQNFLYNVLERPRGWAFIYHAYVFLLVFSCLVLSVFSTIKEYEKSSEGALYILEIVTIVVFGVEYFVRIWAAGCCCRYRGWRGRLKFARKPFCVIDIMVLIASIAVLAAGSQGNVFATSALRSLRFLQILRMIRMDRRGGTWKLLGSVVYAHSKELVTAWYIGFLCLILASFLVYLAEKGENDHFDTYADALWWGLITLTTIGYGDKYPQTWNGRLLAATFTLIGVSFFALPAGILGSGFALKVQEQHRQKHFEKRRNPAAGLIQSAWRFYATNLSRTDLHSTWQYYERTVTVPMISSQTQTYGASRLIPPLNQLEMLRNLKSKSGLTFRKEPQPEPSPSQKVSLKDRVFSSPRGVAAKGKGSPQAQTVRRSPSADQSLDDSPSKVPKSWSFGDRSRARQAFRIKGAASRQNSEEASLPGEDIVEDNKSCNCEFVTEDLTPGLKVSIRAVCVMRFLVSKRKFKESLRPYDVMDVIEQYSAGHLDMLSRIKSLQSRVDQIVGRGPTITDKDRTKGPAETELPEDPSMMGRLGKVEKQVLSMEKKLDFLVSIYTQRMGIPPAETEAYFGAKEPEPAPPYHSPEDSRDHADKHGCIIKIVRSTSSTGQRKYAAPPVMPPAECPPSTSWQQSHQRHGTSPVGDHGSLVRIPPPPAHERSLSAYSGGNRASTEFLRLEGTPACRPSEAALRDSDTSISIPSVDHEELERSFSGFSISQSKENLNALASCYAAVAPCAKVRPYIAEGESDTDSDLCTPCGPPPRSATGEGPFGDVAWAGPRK
# KCNQ2 pot baseline = second read-out of KCNQ2 pot, no call of its own (marks repeat the call); B-score; compound at 10 µM; measured here: initial fluorescence intensity artifact check;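 brightness before thallium and not channel activity; 0 = typical well and far values either way flag optical interference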
# An asterisk follows results filed as active.
structure	KCNQ2 pot	KCNQ2 pot baseline
CCOCCCN(C)C1CCN(C(=O)c2oc3ccccc3c2NC(=O)COc2ccc(F)cc2)CC1	1.3	-0.54
CCOc1ccccc1N1CCN(C(=O)c2c(C)noc2C)CC1	0.96	0.1
COc1ccccc1CN1CCNC(=O)C1CC(=O)NCCc1cnccn1 (centres undefined)	2	0.68
S=C(N/N=C/c1ccccc1Cl)Nc1cccc(Cl)c1Cl	2.6	-1.1
Cc1cc(N/C(=N/S(=O)(=O)c2cc(F)ccc2F)c2ccccc2)n(-c2ccccc2)n1	1	-0.67
COc1cccc(N2CC(C)Cn3c2nc2c3c(=O)[nH]c(=O)n2C)c1 (centres undefined)	0.94	-0.2
Cc1cc(NC(=O)COC(=O)c2cccc(O)c2)no1	0.09	-0.75
Cc1ccccc1/C=C/c1cc[n+](C)cc1	0.63	-0.72
CC(C)N(c1ccccc1)c1ccc(NC(=O)C2CCCO2)cc1 (centres undefined)	0.18	-1.2
CC1CN(C(=O)C(C)N2CCN(c3cccc(Cl)c3)CC2)CC(C)O1 (centres undefined)	0.74	0.34
Oc1ccc(/C=N/N2CCCCC2)c(O)c1	0.59	-1.4
O=C(Nc1ccccn1)c1ccc(Cl)c(S(=O)(=O)N2CCOCC2)c1	0.12	1.6
CC(=O)c1ccc(NC(=O)CSc2ccc(-c3ccc(-n4cccn4)cc3)nn2)cc1	0.41	1.4
CCOC(=O)c1c(NC(=O)C2=C(C)NC(=S)NC2c2ccc(C)cc2)sc(C)c1C (centres undefined)	3.6	-0.23
NC(=O)NCCCC(NC(=O)c1ccc(C#CC2(O)CCCCC2)cc1)C(=O)O (centres undefined)	0.68	0.36
Cc1ccccc1-c1ccc(=O)n(CC(=O)Nc2ccc(N3CCOCC3)cc2)n1	0.34	-0.06
Cc1ccc2nc(C(=O)N3CCCC(Nc4ccc(F)cc4)C3)cn2c1 (centres undefined)	0.92	1.8
O=C(Cn1cnc2scc(-c3ccccc3)c2c1=O)NCc1ccco1	0.18	-0.66
O=C(CNC(=O)c1ccccc1Cl)Nc1ccc(F)cc1	0.3	0.12
NS(=O)(=O)c1ccc(NC(=O)c2ccc(F)cc2F)c(NC(=O)c2ccc(F)cc2F)c1	0.22	3
CNC(=O)c1ccc(Nc2nnc(-c3ccc(C)c(S(N)(=O)=O)c3)c3ccccc23)cc1	1.9	-1.3
Nc1ncc2c(n1)-c1ccccc1CC2	1.1	-2
O=C(COC(=O)CCc1nc2ccccc2c(=O)[nH]1)Nc1ccc2c(c1)OCO2	0.82	-1.7
Cc1nn(-c2ccccc2)c(N)c1N=Nc1cccnc1	0.85	-0.55
COc1ccc(C(=O)COc2ccc(F)cc2)c(O)c1C	1.4	-1.4
COc1cc(NC(=O)c2cccnc2Sc2ccc(Cl)cc2)cc(OC)c1OC	0.46	0.13
O=c1[nH]c(CN2CCOCC2)nc2ccccc12	0.15	-0.19
CCN(CCO)C(=O)C12CCC(C)(C(=O)C1)C2(C)C (centres undefined)	0.08	0.48
NNC(=O)c1csc(COc2cc(Cl)cc(Cl)c2)n1	1.2	0
Cn1ccnc1SCCC#N	0.03	4.1
Cc1cccc(OCC(=O)NCC(=O)N/N=C/c2cccnc2)c1	1.8	0.24
CN(C)c1ccc(/C(=N\O)C(F)(F)F)cc1	0.31	-0.62
O=C(O)c1cnc(N2CCOCC2)nc1	2	-0.12
COC(=O)[C@H](CCSC)NC(=O)Nc1cccc(C)c1C	0.22	-1.5
O=C(CCCC(=O)OCC(=O)c1cccs1)Nc1ccc(Oc2ccccc2)cc1	0.49	0.29
C=CCn1c(=S)sc2c(=O)[nH]cnc21	0.03	0.36
CC(=O)Oc1ccc(C(=O)Nc2cccc(C(=O)c3ccc(C)c(C)c3)c2)cc1	1.2	0.27
CCn1c(C)c(C(C)=O)c(N2CCCCC2)nc1=S	1.3	-0.83
COc1ccc(CNC(=O)COC(=O)CN2C(=O)COc3ccccc32)cc1	0.93	2.6
CCOC(=O)N1CCN(C(=O)c2ccc3nc(N4CCCCC4)sc3c2)CC1	0.09	0.35
Cc1ccc(-c2nc3ccccc3c(=O)n2NC(=S)N(C)C)cc1	1.2	0.93
COc1ccccc1C(=O)NCCC(=O)N1CCN(C(C)=O)CC1	0.23	0.66
O=C(Nc1ccc(C(=O)N2CCN(c3ccc(Cl)cc3)CC2)cc1)C1=CSCCO1	1.1	0.43
O=C(O)c1nn(CC(=O)N(C2CCCCC2)C2CCCCC2)c(=O)c2ccccc12	0.42	-0.48
CCCCNC(=O)CSc1nc2ccsc2c(=O)n1C1CCN(C(=O)OCC)CC1	0.63	-1.9
CCOC(=O)Cc1csc(NC(=O)/C=C/c2ccc(OC)cc2)n1	0.74	0.15
O=C(CN(Cc1cccs1)C(=O)CNS(=O)(=O)c1ccc(F)cc1)NCc1ccco1	0.66	0.96
O=C(NC1CCS(=O)(=O)C1)c1cccc(S(=O)(=O)N2CCCCCC2)c1 (centres undefined)	0.51	0.95
CC(C)N(C(=O)CSc1nnc(NC(=O)Cc2cccs2)s1)C(C)C	0.55	0.59
CCOC(=O)c1c(NC(=O)CSc2ncn[nH]2)sc(C(=O)N(C)C)c1C	1	-0.86

# The last 4 compounds of the part above open the next one.
structure	KCNQ2 pot	KCNQ2 pot baseline
O=C(CN(Cc1cccs1)C(=O)CNS(=O)(=O)c1ccc(F)cc1)NCc1ccco1	0.66	0.96
O=C(NC1CCS(=O)(=O)C1)c1cccc(S(=O)(=O)N2CCCCCC2)c1 (centres undefined)	0.51	0.95
CC(C)N(C(=O)CSc1nnc(NC(=O)Cc2cccs2)s1)C(C)C	0.55	0.59
CCOC(=O)c1c(NC(=O)CSc2ncn[nH]2)sc(C(=O)N(C)C)c1C	1	-0.86
O=C(NCCS(=O)(=O)N1CCN(c2ccccc2)CC1)c1cccc(F)c1	0.14	1.8
CCN(CC)CCN1C(=O)c2ccccc2NC1c1cc(OC)c(OC)c(OC)c1 (centres undefined)	0.98	0.69
Cc1ccc(S(=O)(=O)N2CCOCC2)cc1NC(=O)COC(=O)c1cc(=O)c2ccccc2o1	0.08	0.48
CCn1ccnc1CNC(=O)c1ccc2oc(CCCc3ccccc3)nc2c1	0.02	0.38
O=C(CCSCCc1ccccn1)Nc1cccc([N+](=O)[O-])c1	0.3	0.41
Cc1ccc(/C=N/Nc2nc(C(C)(C)C)cs2)o1	6.9*	0.5*
CCOC(=O)C1CCCCN1Cc1ccc(F)cc1 (centres undefined)	0.26	0.65
CCCCn1nnnc1NCc1cccs1	1.2	-0.37
CC(C(=O)NCc1ccc(Cl)cc1)n1cccc1C(=O)c1ccccc1 (centres undefined)	0.08	0.69
CC1=NN(C(=S)Nc2ccccc2)C(C)(C)C1	0.07	0.19
CC(OC(=O)C1CCN(S(=O)(=O)c2ccc(C(C)(C)C)cc2)CC1)C(=O)N1CCOCC1 (centres undefined)	0.81	-0.21
Cc1ncccc1C(=O)N1CCCC(CCC(=O)N2CCN(c3ccccn3)CC2)C1 (centres undefined)	0.31	0.17
CC(=O)N1CCc2cc3nc(C)cc(C)c3cc21	0.11	0.58
S=C(NCCc1ccc(Cl)cc1)NC1CCCC1	0.65	0.57
CCOC(=O)Cn1c(CN2CCOCC2)nc2c1c(=O)n(C)c(=O)n2C	0.46	0.31
Cc1onc(-c2c(F)cccc2Cl)c1-c1nnc(-c2cccc3ccccc23)o1	0.66	-0.71
CC12CN(C(=O)c3ccc(Cl)cc3)C3(C#N)CC1CCC23C (centres undefined)	0.01	-0.97
O=C(Nc1ccc(S(=O)(=O)Nc2nccs2)cc1)c1cccc(S(=O)(=O)N2CCOCC2)c1	1.1	-0.41
O=C(Oc1ccccc1-c1nnco1)c1ccccc1	0.1	0.03
N#CC1=C(Nc2ccccc2)SC=C(c2ccc(Br)cc2)N=C1N1CCOCC1	0.21	0.47

# Additional compounds.
SMILES	KCNQ2 pot	KCNQ2 pot baseline
COc1cc(/C=N\Nc2nc3ccccc3o2)cc(OC)c1OC	1.1	-0.76
CCOC(=O)c1cc2c(n(-c3ccccc3)c1=O)CC(C)(C)CC2=O	0.11	-1.4
C=CCSc1nc2sc3c(c2c(=O)n1CC)CCc1ccccc1-3	5.7*	0.04*
Cc1cc(=O)[nH]c(SCc2nc3ccc([N+](=O)[O-])cc3[nH]2)n1	0.6	0.96
CC(C)COc1ccc(C(=O)Nc2ccc(NC(=O)c3ccco3)c(Cl)c2)cc1	1.3	2.1
CC(=O)c1cccc(N(CC(=O)Nc2cccnc2)S(C)(=O)=O)c1	0.08	-0.85
COc1cccc(C(=O)COc2ccc3c(C)c(Cc4ccccc4)c(=O)oc3c2C)c1	1.4	0.05
CCOc1ccc(NC(=O)N2CCCC2C(=O)NCc2ccco2)cc1 (centres undefined)	2	0.1
Cc1cccc(-c2nc3sc(C)cc3c(=O)o2)c1	0.84	-0.53
CC(=O)c1sc2nc(C)c3c(c2c1N)CCCC3	0.01	-0.61
Cc1c(NC(=S)N2CCN(c3ccc(F)cc3)CC2)c(=O)n(-c2ccccc2)n1C	1.9	0.01
Cc1ccc(-n2nc(CN3CCOCC3)c(-c3ccccc3)c2N)cc1Cl	0.04	-0.71
C=CCSc1n[nH]c(-c2ccccc2)n1	0.17	2.2
COc1ccc(CCN2C(=O)CSC2=Nc2ccc(C)cc2C)cc1OC	0.61	-0.42
CC(OC(=O)C1CCN(S(=O)(=O)c2ccccc2C(F)(F)F)CC1)C(=O)N(C)Cc1ccccc1 (centres undefined)	1.1	-1.4
CCOC(=O)C1CCN(CC(O)COc2ccc(C(C)=O)cc2)CC1 (centres undefined)	1.1	0.22
O=C(CS(=O)(=O)c1cn(Cc2ccccc2Cl)c2ccccc12)N1CCOCC1	0.14	0.82
Cc1ccc(C(=O)CC(=O)c2cc(Cl)ccc2O)cc1	6*	0.01*
COC(=O)C1=C(C)N(c2ccccc2)/C(=C/c2ccco2)C1=O	0.39	-0.44
Cc1nnc(C)n1/N=C/c1ccc(-c2ccccc2Cl)o1	0.77	0.22
Cc1onc(-c2c(F)cccc2Cl)c1C(=O)N(C)CCc1ccccn1	0.73	0.81
CCOc1ccc(C(=O)NCC(=O)OCC(=O)N2CCC(C)CC2)cc1	2	-1.5
CCC1=C(OC(=O)N(CC)CC)N2C(=O)OC(=NCC(=O)OC)[C@]2(C)[C@H]2C1=CC[C@H]1C(=O)N(CC(=O)OC)C(=O)[C@H]12	0.13	0.44
COC(CNC(=O)c1cc(Sc2nnc(C)s2)nc2ccccc12)OC	1.7	-1.1
Fc1cc(F)c2nc(N3CCOCC3)sc2c1	0.76	-0.67
CCN(CC)S(=O)(=O)c1ccc(S(=O)(=O)N2CCCC2C(=O)O)cc1 (centres undefined)	1.1	-2.5
Cc1ccc(N2CCN(c3ccc(C)cc3)C(CC(=O)O)C2=O)cc1 (centres undefined)	0.67	-0.04
O=C(O)C1OC2OC3(CCCCC3)OC2C2OC3(CCCCC3)OC12 (centres undefined)	0.67	1.7
CCN(CC)CCOc1ccc2c(c1)C(=NO)c1cc(OCCN(CC)CC)ccc1-2	2.7	-0.32
CCN1C(=O)N(C)[C@@H](c2ccccc2)C(C(=O)OC)=C1C	0.4	0.01
COc1cccc(C2=CC(=O)CCC2)c1OC	1.8	-0.32
CC(=O)Nc1sc(NC(=O)c2ccccc2)nc1-c1cccs1	0.62	0.02
Cc1ccc(NC(=O)CCSCCC(=O)Nc2ccc(C)c(C)c2)cc1C	1.3	1.2
COc1ccc(-c2nc(C#N)c(N3CCOCC3)o2)cc1OC	0.11	-0.45
COc1ccc(N2CCN(CCCNC(=O)Cn3c(=O)c4cccn4c4cccnc43)CC2)cc1	0.8	0.11
Cc1nn(-c2ccccc2)c(C)c1CCC(=O)O	0.57	-0.02
CCCc1cc(=O)n2c([nH]c3ccccc32)c1C#N	1.1	-1.3
Nc1nc(F)nc2c1ncn2[C@@H]1O[C@H](CO)[C@@H](O)[C@H]1O	0.64	1.2
O=C(NNC(=O)C1CCN(c2ncccn2)CC1)c1ccncc1	0.42	-0.55
CC(=O)N[C@H]1C[C@@H]1c1ccccc1	0.61	-0.86
O=C(NC1CCN(Cc2ccccc2)CC1)c1ccc2c(c1)[nH]c(=O)n2Cc1ccc(F)cc1	1.6	1.2
CCOC(=O)c1ccc(NC(=O)CCc2nc(-c3ccccc3Cl)no2)cc1	3.5	-1.2
Cc1cccc(C(=O)N2CCN(c3ccc(C(F)(F)F)cn3)CC2)c1C	0.66	1.9
c1ccc(Cc2nnc(-c3ccccc3)o2)cc1	0.97	-0.33
COc1ccc(CCN2C(=O)CC(Sc3ncccc3C(=O)O)C2=O)cc1OC (centres undefined)	0.76	2.8
O=C1c2ccccc2C(=O)N1CC1c2ccccc2CCN1S(=O)(=O)c1cnc[nH]1 (centres undefined)	0.89	-1.2

# Reformatted with each value named: part of the list above
O=C(NC1CCN(Cc2ccccc2)CC1)c1ccc2c(c1)[nH]c(=O)n2Cc1ccc(F)cc1
  KCNQ2 pot: 1.6 | KCNQ2 pot baseline: 1.2
Cc1cccc(C(=O)N2CCN(c3ccc(C(F)(F)F)cn3)CC2)c1C
  KCNQ2 pot: 0.66 | KCNQ2 pot baseline: 1.9
O=C1c2ccccc2C(=O)N1CC1c2ccccc2CCN1S(=O)(=O)c1cnc[nH]1 (centres undefined)
  KCNQ2 pot: 0.89 | KCNQ2 pot baseline: -1.2

# High-throughput results: PubChem, Johns Hopkins Ion Channel Center

# Only part of the results is shown (hit frequency here may not be typical).
